Screening results deposited in PubChem BioAssay by several laboratories.
Ecoli growth: inhibitors of Escherichia coli growth; OD600, 23 h; stronger effect = lower value; OD600 absorbance (test concentration not listed); 330,000 tested, 0.21% active; AID 1053175;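 active means OD600 absorbance below the run mean of sample wells minus 3.6 SD, in any replicate, cut at about 0.56 in these data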;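 further: stock transfer was 300 nL into about 60 µL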
AF4-AF9 inh: inhibitors of human MLL-AF4/AF9 interaction | P42568 | AlphaScreen, biotin-AF4 peptide binding to FLAG-AF9 | inhibition, % at 10 µM | 350,000 tested, 0.47% active | AID 651704;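 active means every replicate reaching a set inhibition limit, whatever the replicate mean, cut at about 25% in these data; inconclusive means mean inhibition reaches that limit but some replicates miss it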;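 further: 0% = plate neutral control median and 100% = total signal loss; the record names both 10 and 1 µM as test concentration; the first replicate is given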
Target sequence (P42568 whole entry, looked up): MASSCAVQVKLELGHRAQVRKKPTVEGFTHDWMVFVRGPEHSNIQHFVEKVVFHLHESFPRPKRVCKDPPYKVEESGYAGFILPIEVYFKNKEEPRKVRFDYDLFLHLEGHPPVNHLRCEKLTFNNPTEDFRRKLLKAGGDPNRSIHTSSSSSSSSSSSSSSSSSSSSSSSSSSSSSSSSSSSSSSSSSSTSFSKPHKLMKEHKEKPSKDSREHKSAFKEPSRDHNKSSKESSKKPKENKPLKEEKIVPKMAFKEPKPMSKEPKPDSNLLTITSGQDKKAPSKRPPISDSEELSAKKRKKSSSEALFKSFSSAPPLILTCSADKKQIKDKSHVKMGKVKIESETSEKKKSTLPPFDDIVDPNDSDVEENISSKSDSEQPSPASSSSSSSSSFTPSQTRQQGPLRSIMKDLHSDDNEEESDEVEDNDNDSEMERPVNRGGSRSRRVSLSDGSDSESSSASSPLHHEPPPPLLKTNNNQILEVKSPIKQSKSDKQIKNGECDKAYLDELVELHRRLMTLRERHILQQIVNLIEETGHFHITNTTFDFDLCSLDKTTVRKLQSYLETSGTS
T cruzi inh: blocks replication of Trypanosoma cruzi; T. cruzi beta-gal in NIH3T3, luminescence, 90 h; inhibition, % (no concentration beside the values); 300,000 tested, 1.4% active; AID 1885;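 active means mean inhibition across valid replicates above about 55%, limit read from the data; inconclusive means mean below that limit but half or more replicates reach it; inactive means mean below it, under half of replicates reach it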;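 further: signal also drops with host cell toxicity which is not excluded here; 0% = plate median of DMSO wells and 100% = zero luminescence signal; higher percent means less beta-gal luminescence so fewer parasites; stock transfer was 50 nL into about 50 µL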
UCH37 DUB inh: human UCH37 deubiquitinating enzyme inhibition. Q9Y5K5. purified proteasome/UCH37, Ub-AMC cleavage fluorescence. inhibition, % (no concentration beside the values). 330,000 tested, 0.33% active. AID 588478;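 active means mean of two replicates above 20%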;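 further: 0% = compound-free wells with enzyme and 100% = wells lacking proteasome; stock transfer was 100 nL into about 20 µL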
Target sequence (Q9Y5K5 whole entry, looked up): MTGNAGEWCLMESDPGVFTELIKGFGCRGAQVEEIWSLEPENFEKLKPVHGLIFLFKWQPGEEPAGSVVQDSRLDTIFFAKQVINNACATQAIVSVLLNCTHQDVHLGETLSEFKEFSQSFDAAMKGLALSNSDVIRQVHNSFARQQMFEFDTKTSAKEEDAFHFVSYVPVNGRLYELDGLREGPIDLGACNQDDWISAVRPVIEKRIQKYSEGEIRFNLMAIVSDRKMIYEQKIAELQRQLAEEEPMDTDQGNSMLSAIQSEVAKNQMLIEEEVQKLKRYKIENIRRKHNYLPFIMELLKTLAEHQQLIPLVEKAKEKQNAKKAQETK
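Assay system: Proteasome-bound UCH37. Buffer or medium: pH 7.4 Tris-HCl (50 mM) with ovalbumin, ATP-MgCl2, DTT. Incubation: 30 min preincubation with enzyme, 25 min cleavage at room temperature. Measured by: fluorescence, ex 355 nm, em 460 nm. Read-out basis: percent inhibition. Control set: wells without proteasome as full block, compound-free enzyme plus substrate as uninhibited.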
Beta apoptosis: beta cell apoptosis inhibition | INS-1E cytokine-induced death, ATP luminescence, 48 h; percent of positive-control rescue, neutral wells zero | protection from apoptosis, % (test concentration not listed) | 300,000 tested, 0.8% active | AID 435005;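 active means all replicates at 75% or more, or half of them and the mean; inconclusive means half reach 75% but not the mean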;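 further: 0% = cytokine-treated negative control wells and 100% = positive control rescue; higher means more ATP so stronger rescue from cytokine killing; wells of about 40 µL received 100 nL stock; the first replicate is given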
Ecoli rRNA inh: inhibitors of bacterial rRNA selective over humanized ribosomes; 350,000 tested, 1.6% active; GFP signal change (wild-type ribosome), % (no concentration beside the values); AID 720706; E. coli WT GFP vs humanized-ribosome RFP mutants, fluorescence, 24 h; stronger effect = lower value; DMSO median 0, no signal -100;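 active means significant combined selectivity score with lowered wild-type GFP, culture density cut under 30%, mutant RFP and density less affected; inactive means any of these conditions unmet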; further: one replicate is shown; some compounds called inactive have numbers as strong as hits
A1 inh: inhibitors of the anti-apoptotic protein A1, read as caspase activation. MEF A1-2A-BIM cells, Caspase-Glo 3/7 luminescence, 3 h; percent of clofoctol response, vehicle zero. caspase activation, % (test concentration not listed). 330,000 tested, 0.066% active. AID 2462;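 active means over half of replicate activation scores above 10%, or exactly half above 10 with the replicate mean above 10; inconclusive means replicate mean below 10 yet half the replicates above 10; inactive means over half of replicates below 10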;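 further: wells of about 30 µL received 50 nL stock; many hits fall short of the cut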
FGF22 binding: shifts melting point of recombinant human FGF22; calls only at 9.99 µM; Q9HCT0; recombinant FGF22 thermal shift, SYPRO orange fluorescence; percent of sucrose octasulfate shift, DMSO zero; 340,000 tested, 1.5% active;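 active means melting point raised past a set limit in the mean and every replicate; inconclusive means no clear call; three in four hits are not shown here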
Ecoli rRNA inh OD600: recorded beside Ecoli rRNA inh, whose call it bears; OD600 change, %; measured here: OD600 growth;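 optical density of the mix in the first replicate; 0 = DMSO median and -100 = no signal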
Ecoli rRNA inh RFP: further read-out of Ecoli rRNA inh, marked with its call; RFP signal change, %; measured here: RFP humanized mutant strains;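 first replicate; 0 = DMSO median and -100 = no signal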
The depositor's hits bear a star; i = inactive; ? = inconclusive; / = not tested or not shown; & = joins results of further samples. The list is partial; count on the stated rates, not on these rows.

Every second line gives: Ecoli growth	AF4-AF9 inh	T cruzi inh	UCH37 DUB inh	Beta apoptosis	Ecoli rRNA inh	Ecoli rRNA inh OD600	Ecoli rRNA inh RFP	A1 inh	FGF22 binding
- O=C(CCS(=O)(=O)Cc1ccccc1)NCC1CCCO1 (centres undefined)
    0.68	/	-5	2.0	-7	/	/	/	1.1	/
- Cc1ccc(S(=O)(=O)NC(C)CCc2ccccc2)cc1C(N)=O (centres undefined)
    0.68	3.6	-16	1.4	8	-10	-11	-4.5	-0.4	i
- O=S(=O)(Cc1cc(NCc2ccccc2)nc(-c2ccccn2)n1)c1ccccc1
    0.71	1.2	27	2.2	/	-39*	-26*	-4.6*	0.4	i
- Cc1oc2nc(SCC(=O)NCCCO)nc(N)c2c1C
    0.67	/	-7	4.0	-2	/	/	/	0.3	/
- CN(C)/C=N/NC(=O)c1ccc(Cl)cc1
    /	-0.1	-14	/	7	10	4	-1.6	-0.3	i
- CCCOc1ccc(C2=CSC3=NCCN23)cc1Cl
    0.59	17	5	3.9	9	11	7	3.6	-1.2	i
- CC(C)(C)NC(=O)NC(=O)COC(=O)CCC1CCCC1
    0.69	/	-10	2.9	-3	17	4	-4.1	0.5	i
- COc1cccc(-n2ccnc2SCC(=O)NCc2ccccc2)c1
    0.75	/	1	1.7	1	/	/	/	0.9	/
- CCCCn1c(-c2ccccc2C)nc2cc3[nH]c(=O)c(C(C)C)nc3cc21
    0.67	3.3	30	-35	8	-25	-57	24	0.4	i
- Cc1ccc(-c2nnn(CC(=O)N3CCCCC3)n2)o1
    0.67	-1.4	-12	-0.4	-8	-8	-18	-2.1	0.3	i
- COCCNC(=O)C1CCCN(S(=O)(=O)c2ccc3c(c2)CC(C)N3C(=O)C2CC2)C1 (centres undefined)
    0.69	-5.1	-2	7.5	-12	0	3	-0.9	0.4	i
- O=C(NNc1ncc(C(F)(F)F)cc1Cl)c1ccc(Cl)c(Cl)c1
    0.68	5.9	-21	1.5	7	2	9	-0.4	0.6	i
- CCCCCCc1c(O)c2ccccc2[nH]c1=O
    0.72	/	15	-3.8	/	/	/	/	0.8	/
- CCN1C(=O)[C@H]2[C@@H](c3ccc(SC4CCCCC4)c(OC)c3)N[C@@](Cc3ccccc3)(C(=O)OC)[C@H]2C1=O
    /	4.6	-21	0.6	/	5	3	2.5	0.1	i
- CCN1C(=O)CS/C1=N\S(=O)(=O)c1ccccc1
    /	0.0	-3	/	-3	8	1	2.3	-0.3	i

A few values from the entries so far.
`Cc1ccc(S(=O)(=O)NC(C)CCc2ccccc2)cc1C(N)=O` (centres undefined) @ A1 inh = -0.4
`CCN1C(=O)[C@H]2[C@@H](c3ccc(SC4CCCCC4)c(OC)c3)N[C@@](Cc3ccccc3)(C(=O)OC)[C@H]2C1=O` @ Ecoli rRNA inh = 5

Next part.
Every second line gives: Ecoli growth	AF4-AF9 inh	T cruzi inh	UCH37 DUB inh	Beta apoptosis	Ecoli rRNA inh	Ecoli rRNA inh OD600	Ecoli rRNA inh RFP	A1 inh	FGF22 binding
- CCOC(=O)c1cc2cc([N+](=O)[O-])ccc2oc1=O
    0.69	-4.3	-2	3.8	-5	9	-2	-3.7	0.6	i
- CCOC(=O)c1ccc(OCC2NCCc3cc(OC)c(OC)cc32)cc1 (centres undefined)
    0.67	5.5	13	-4.1	-6	8	5	2.1	0.6	i
- CCCCCc1cc(=O)oc2c(C(CCN(CC)CC)c3ccc(N(C)C)cc3)c(OC)cc(OC)c12 (centres undefined)
    0.69	52*	43	1.6	5	-48	-44	8.0	-0.4	i
- O=C(c1ccc(C(F)(F)F)cc1)C1CCCN(C(=O)CCn2cncn2)C1 (centres undefined)
    0.69	-5.9	5	0.1	-4	0	2	-0.8	-0.1	i
- CC(=O)Nc1ccc2c(CSc3nnc(N)s3)cc(=O)oc2c1
    0.68	-2.1	-1	-13	-5	2	0	-4.8	0.1	i
- O=C(NCc1cccnc1)NC1(C(F)(F)F)Oc2ccc(Cl)cc2O1 (centres undefined)
    0.73	/	-11	4.6	2	/	/	/	-0.3	/
- CC(C)(C)NC(=O)NC(=O)CN1C(=O)NC(c2ccccc2)(c2ccccc2)C1=O
    0.68	5.6	-5	5.9	1	0	-7	2.1	-0.5	i
- CC(C)CNC(=S)NNC(=O)c1csc2c1CCCC2
    0.65	/	-3	2.2	-7	/	/	/	2.0	/
- O=C(OCCOc1cccc(Cl)c1)C1CCN(S(=O)(=O)c2ccccc2)CC1
    0.76	-5.1	-7	3.0	-6	1	-7	1.6	-0.6	i
- Cc1ccc(S(=O)(=O)NC(=O)COc2ccccc2C)c(C)c1
    0.63	-0.9	-6	1.6	-2	-2	-1	-0.8	0.6	i
- O=C(Nc1ccccc1)C1CCCCN1S(=O)(=O)c1ccccc1 (centres undefined)
    0.71	-0.4	-6	2.5	-7	-14	-12	-0.7	-0.1	i
- CCCOC1CCCN(C(=O)c2cc(COc3ccc(F)c(F)c3)on2)C1 (centres undefined)
    0.63	-3.3	9	1.8	-2	-9	-3	-2.1	0.8	i
- Cc1ccnc(NC(=O)c2ccc(C(=O)c3ccccc3)cc2)c1
    0.66	-8.9	0	-2.1	/	-20	-33	-5.2	-5.9	i
- CCN1CNC(=S)N(c2cccc(C)c2C)C1
    0.73	/	-3	-0.7	-5	/	/	/	/	/
- O=C(NC[C@@H]1CCCO1)c1cccc2c1C(=O)c1ccc(Cl)cc1S2(=O)=O
    /	-0.8	/	2.0	3	0	5	-1.6	0.8	i

Going on with the list.
Every second line gives: Ecoli growth	AF4-AF9 inh	T cruzi inh	UCH37 DUB inh	Beta apoptosis	Ecoli rRNA inh	Ecoli rRNA inh OD600	Ecoli rRNA inh RFP	A1 inh	FGF22 binding
- CN1CCCC1CCNC1C2CC3CC(C2)CC1C3 (centres undefined)
    0.67	/	27	0.9	1	/	/	/	0.6	/
- CC(C)CC(=O)Nc1cc(C(F)(F)F)ccc1N1CCOCC1
    0.71	/	5	5.9	/	/	/	/	-0.2	/
- CCNS(=O)(=O)c1ccc(CCC(=O)NCc2ccc3c(c2)OCO3)cc1
    0.72	-1.4	7	2.1	-10	1	10	0.5	0.3	i
- O=C(Nc1ccc(F)cc1)c1nc[nH]c1C(=O)O
    0.67	-9.6	-6	1.2	-17	7	-2	3.5	0.5	i
- CC(C)CCC(C(=O)O)C(C)CC(=O)NNC(=O)c1ccco1 (centres undefined)
    0.73&0.7	0.3&0.8	-3&4	4.8&-2.7	-3&6	10&-7	11&-1	3.5&-2.4	0.1&0.3	i
- Brc1nc(Br)n(Cc2ccccc2)n1
    0.64	-2.9	-1	0.3	-4	13	2	-5.1	0.6	i
- N=C(N1CCCc2ccccc21)N1CCCc2ccccc21
    0.66	-0.6	/	3.4	/	8	3	0.0	/	/
- O=c1c(-c2ccc(Cl)cc2)c[nH]n1-c1ccccc1
    0.62	3.2	-5	4.0	12	-6	-11	-19	-6.3	i
- COCCCn1c(N)c(-c2nc3ccccc3n2C)c2nc3ccccc3nc21
    0.71	/	20	-20	10	/	/	/	-0.1	/
- CCCCn1c(N)c(Sc2ccccc2)c(=O)[nH]c1=O
    0.67	/	2	3.9	5	/	/	/	-0.3	/
- CC(=O)OCC(=O)c1c[nH]c2ccccc12
    0.71	-15	-9	1.6	-2	/	/	/	?	i
- CCN(CC)S(=O)(=O)c1ccc(OC)c(NC(=O)c2cc3c(=O)n4ccccc4nc3s2)c1
    /	-11	-17	/	6	3	10	0.8	1.0	i
- COC(=O)CSc1nc(C)c2c(n1)CCCC2
    0.73	-0.1	-13	2.0	-5	11	4	0.3	0.0	i
- CCOc1ccc(N/C=C/C(=O)c2ccc(C)cc2)c([N+](=O)[O-])c1
    0.77	/	7	2.0	3	/	/	/	-1.1	/
- CC1CC(C)CN(c2nc(N(C)c3ccccc3)nc(N)c2[N+](=O)[O-])C1 (centres undefined)
    0.68	/	25	3.1	4	-19	-14	-0.4	-0.5	i

Ordered by value in UCH37 DUB inh (low to high): three from the list above
| smiles | UCH37 DUB inh |
| --- | --- |
| Brc1nc(Br)n(Cc2ccccc2)n1 | 0.3 |
| CCCCCc1cc(=O)oc2c(C(CCN(CC)CC)c3ccc(N(C)C)cc3)c(OC)cc(OC)c12 (centres undefined) | 1.6 |
| CC(C)(C)NC(=O)NC(=O)CN1C(=O)NC(c2ccccc2)(c2ccccc2)C1=O | 5.9 |

Next part.
Every second line gives: Ecoli growth	AF4-AF9 inh	T cruzi inh	UCH37 DUB inh	Beta apoptosis	Ecoli rRNA inh	Ecoli rRNA inh OD600	Ecoli rRNA inh RFP	A1 inh	FGF22 binding
- COc1ccc(S(=O)(=O)N2CCC(C(=O)NCCC(=O)Nc3ccc(Cl)cc3)CC2)cc1
    0.72	-8.0	1	1.6	-1	1	2	0.5	-0.2	i
- COc1ccc(CN2CCC(C(=O)Nc3ccc(Oc4ccccc4)nc3)CC2)cc1F
    0.72	3.8	16	5.0	/	-5	-9	3.1	0.9	i
- CCn1c2ccccc2c2cc(NC(=O)CSc3nnc(-c4ccccc4OC)n3N)ccc21
    0.69	/	41	0.6	4	/	/	/	-0.9	/
- CCc1ccc(-c2nc(CN3CCC(C(=O)NCc4ccco4)CC3)c(C)o2)cc1
    0.71	/	6	3.2	0	/	/	/	-0.9	/
- CC1(C)C(C#N)=C(N)Oc2c1c(=O)oc1ccccc21
    0.69	1.4	-20	5.3	-16	-13	-5	1.7	1.0	i
- COc1ccccc1COc1ccc2c(C)c(CC(=O)O)c(=O)oc2c1C
    0.68	-4.2	-6	-186	-4	-12	-10	-0.5	0.7	i
- CC1(C)CC2CC(C)(CN2C(=O)COC(=O)c2cncc(Br)c2)C1 (centres undefined)
    0.64	-5.4	/	0.6	-3	-1	-8	-3.0	0.5	i
- Cc1cccc(/C=C/c2onc(C)c2S(=O)(=O)N2CCC(C(=O)N3CCC(C)CC3)CC2)c1
    0.67	8.4	1	-3.1	1	7	-2	-0.5	0.1	i
